Prx2 Sm inh = blocks S. mansoni peroxiredoxin 2 enzymatic activity. S. mansoni Prx2 activity coupled to TGR/GSH (TGR is thioredoxin glutathione reductase), NADPH fluorescence loss, qHTS; some inactives read as strong as hits. Potency, µM. 0.07% of 65,000 active. AID 448; active means full or partial inhibition curve with a strong effect at the top dose; inconclusive means weaker partial or single-point curve; inactive means no accepted curve; further: series up to 57 µM; many of its hits are not listed in these tables
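Prx2 inhibition was measured as reduced NADPH consumption when electrons flowed from NADPH through TGR and glutathione to Prx2 and H2O2. Plates were read kinetically over 8 min; enzyme reagents were held at 4 deg C during dispensing.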
LT uptake inh = anthrax lethal toxin internalization inhibition; Cells, anthrax lethal toxin internalization, FRET ratio (460/530); Potency, µM (doses to about 40 µM), without a hit: top-dose activity change, negative = inhibition, actives largely listed as inhibitors; 0.67% of 70,000 active; AID 912; active = well fitted falling ratio curve with the 530 nm signal flat; inconclusive = other ratio curves, or a change in one channel alone; inactive = flat curves in the ratio and both channels; the % refers to the ratio; further: on the % scale 0 is the no-effect control and ±100 the full control effect; nearly all actives have a fitted effect of over 50% in size; tested in ME-180 cells; beta-lactamase reporter
Starred values were filed as active, the others as inactive; ? = inconclusive; . = not tested or not shown; & = joins results of further samples; [ ] = remark or other dose. Potency means the concentration at half of the fitted maximal effect.

SMILES	Prx2 Sm inh	LT uptake inh
CC(=O)c1c(C(C)=O)c(C)n(-c2nc(-c3ccccc3)c(C)s2)c1C	.	-5.7%
CC(C)N1CCN(c2ccncc2S(=O)(=O)N2CCCCC2)CC1	>57	6.6%[8 µM]
CCc1ccc(NC(=O)C2CC(=O)N(C(C)C)C2)cc1 (configuration not stated)	>57	-16.9%
COP(C)(=O)c1c(C)nn(-c2ccccc2)c1C (configuration not stated)	>57	4.0%
CCSc1nc2c(c(=O)[nH]1)C(c1ccccn1)C1=C(CC(C)(C)CC1=O)N2 (configuration not stated)	>57	14.3%
CCC(=O)N1CCc2cc(S(=O)(=O)N(CC)c3cccc(C)c3)ccc21	>57	-1.1%
COc1ccc(-c2nnnn2CCc2ccccc2)cc1	>57	-1.4%
Cc1nonc1NC(=O)OCCN1CCOC1=O	>57	14.0%
CC1CCCCN1CCNC(=O)Cn1nc(-c2ccccc2)ccc1=O (configuration not stated)	>57	9.9%
COc1ccc(NC(=O)CN2CCCCC2)cc1	?	-4.0%

Entries from the list above that have four or more nitrogen atoms, in the order listed:
SMILES	Prx2 Sm inh	LT uptake inh
CC(C)N1CCN(c2ccncc2S(=O)(=O)N2CCCCC2)CC1	>57	6.6%[8 µM]
CCSc1nc2c(c(=O)[nH]1)C(c1ccccn1)C1=C(CC(C)(C)CC1=O)N2 (configuration not stated)	>57	14.3%
COc1ccc(-c2nnnn2CCc2ccccc2)cc1	>57	-1.4%
Cc1nonc1NC(=O)OCCN1CCOC1=O	>57	14.0%
CC1CCCCN1CCNC(=O)Cn1nc(-c2ccccc2)ccc1=O (configuration not stated)	>57	9.9%

Carrying on:
SMILES	Prx2 Sm inh	LT uptake inh
COc1ccc(Br)cc1C(=O)Nc1cccc(NC(=O)c2ccco2)c1	.	?
CC(=O)c1cccc(NC(=O)CN(c2ccc(F)cc2)S(C)(=O)=O)c1	>57	-26.7%
Cc1ccc(-c2nc3s/c(=C\c4ccco4)c(=O)n3n2)cc1	>57	-2.8%
O=C(Nc1ccccc1)N(Cc1ccc2c(c1)OCO2)Cc1nc2ccccc2c(=O)[nH]1	>57	-10.0%
CCCn1c(N2CCN(CC(=O)NCc3cccs3)CC2)nc2ccccc21	>57	1.4%
CCSC[C@@H](N)C(=O)O	>57	-0.6%[8 µM]
CCOC(=O)C(C)C(C)=O (configuration not stated)	.	?
Cc1ccc(-c2noc(CN3C(C)CCCC3C)n2)cc1 (configuration not stated)	>57	-12.1%
CCn1ccc(C(=O)Nc2ccc(N(C)C(C)=O)cc2)n1	>57	12.4%
Cc1noc(C)c1C(=O)N1CCC2(CCCN(C(=O)Nc3cccc(C#N)c3)C2)CC1	>57	-5.6%
CNc1nc(N)c(C(=O)C(C)(C)C)s1	>57	-5.7%
Cn1c(SCC(=O)NC2CCCC2)nnc1-c1ccc(S(=O)(=O)N2CCOCC2)cc1	>57	-4.3%
COCC(=O)Nc1nc(-c2ccccc2)c(C)s1	>57	2.5%
O=C(CN(Cc1cccs1)C(=O)CNS(=O)(=O)c1ccccc1)NCc1ccco1	>57	-1.8%
Cc1oc2c(C)c3oc(=O)c4c(c3cc2c1C)CCCC4	.	-17.5%
COc1ccc(C(=O)N2CCN(C(=O)CC(C)C)CC2)cc1OC	.	9.5%
Clc1ccc(CN2C3=NCCCN3c3ccccc32)cc1	>57	-0.5%
Cc1nnc(SCc2nnc(-c3ccccc3)o2)n(N)c1=O	>57	0.3%
C[C@@H](C1=C(CCN(C)C)Cc2ccccc21)c1ccccn1	>57	-12.4%
Fc1ccc(Br)cc1C1C=C(c2cccnc2)Nc2ncnn21 (configuration not stated)	>57	?
CN1C(=O)c2oc3ccccc3c(=O)c2C1c1ccccn1 (configuration not stated)	>57	?
CCn1c(Cn2nnc(-c3ccccc3)n2)nnc1SCC(=O)Nc1ccccc1	>57	-0.3%
Cc1noc(C)c1CSc1nc2ccccc2[nH]1	?	5.1%
COc1ccc(C(C#N)N2CCCCCC2)cc1OC (configuration not stated)	>57	1.0%
O=S(=O)(NCc1csc(-c2cccnc2)n1)c1ccc2c(c1)OCCO2	>57	0.0%
COc1ccc(N2CC(C)Cn3c2nc2c3c(=O)n(CCN3CCOCC3)c(=O)n2C)cc1 (configuration not stated)	>57	-2.6%
CCC(C)NC(=O)c1c(N)n(/N=C/c2cccnc2)c2nc3ccccc3nc12 (configuration not stated)	>57	?
CCN(CC)c1ccc(NC(=O)C(C)C)cc1	>57	?
COc1cc(C2CC(=O)N3CN(Cc4ccco4)CSC3=C2C#N)ccc1OCc1ccccc1 (configuration not stated)	>57	?
O=C(Cn1c(=O)[nH]c2ccsc2c1=O)NC1CCCCCC1	>57	16.1%
CC(C)n1c(C(O)c2ccccc2)nc2ccccc21 (configuration not stated)	>57	-17.6%
CC1CCCCC1NC(=O)CSc1nnnn1-c1ccccc1 (configuration not stated)	>57	2.9%
CCOc1ccc(/C(O)=C2/C(=O)C(=O)N(CCOCCO)C2c2ccccn2)cc1 (configuration not stated)	>57	1.4%
O=c1c2ccccc2nc(-c2ccco2)n1-c1ccncc1	>57	21.5%
O=C(CSc1nnc(Cc2ccccc2)o1)N1CCOCC1	>57	7.9%
COc1ccc(-c2ccc(-c3noc(-c4cccs4)n3)c(OC)n2)cc1	>57	.
O=c1[nH]c(C(F)(F)F)nc2ccccc12	>57	2.0%
CCn1c(C(=O)NC(C)c2ccc3c(c2)OCCO3)cc2sccc21 (configuration not stated)	>57	?
Cc1noc(C)c1CSc1ccc2ccccc2n1	>57	?
COc1ccc2c(c1)c(C(=O)CNc1nc(C)cs1)c(C)n2C	>57	-16.0%
CCCOC(=O)NC1C(NC(=O)OCCC)N(C)C(=O)N1C (configuration not stated)	>57	-10.3%
CCC(C(=O)N1CCN(S(C)(=O)=O)CC1)c1ccccc1 (configuration not stated)	>57	-5.7%
C/C(=C(/CCO)SSC[C@@H]1CCCO1)N(C=O)Cc1cnc(C)nc1N	>57	-11.6%[3.58 µM]
CCc1nnc(NC(=O)CCC(=O)NC2CCCCC2)s1	>57	?
CCCCCC(=O)Nc1ccc(N2CCN(S(C)(=O)=O)CC2)cc1	>57	12.2%
Cc1cc(C)c2c(n1)nn1c(N3CCOCC3)cc(C)nc21	>57	2.1%
CC(C)CC(=O)NCC(C)NC(=O)CC(C)C (configuration not stated)	>57	-7.5%
CCNc1ncc2nc(-c3ccc(F)cc3)c(=O)n(-c3ccc(OC)cc3)c2n1	>57	7.3%
O=C(c1ccc(Nc2cccc(C(F)(F)F)c2)nc1)N1CCCC1	>57	5.0%
Cc1ccc(CNS(=O)(=O)c2ccc3oc(C(=O)O)c(C)c3c2)cc1	>57	?
Later entries.
SMILES	Prx2 Sm inh	LT uptake inh
Cc1ccccc1OCc1nnc2c3cnn(C)c3ncn12	>57	-7.5%
CC(=O)c1c(C)[nH]c(C)c1C(C)=O	>57	-3.6%
C=CCSc1nnc(NC(=O)c2cccc(S(=O)(=O)N3CCOCC3)c2)s1	>57	?
COc1cccc(-n2cc3c(c2-c2ccccc2)c(=O)n(C)c(=O)n3C)c1	>57	-17.1%
Brc1cc(Oc2cc(Br)c(Br)c(Br)c2Br)c(Br)c(Br)c1Br	.	?
Cc1ccc2ccccc2c1CSc1nc(N)nc2c1ncn2CC(C)C	>57	-10.4%[8 µM]
O=C(c1ccco1)N1CCN(CC(=O)N2c3ccccc3CCc3ccccc32)CC1	>57	?
N#CC(=C(/N)Sc1ccccc1N)/C(C#N)=C(/N)Sc1ccccc1N	>57&>57	?
O=C(C1CCCCC1)N(Cc1ccccc1)c1ccccn1	>57	-2.1%
Cc1cccc(NC(=O)c2cc(NC(=O)C3CCCCC3C(=O)O)ccc2Cl)n1 (configuration not stated)	>57	10.9%
CCOC(=O)C(C(C)=O)C(c1ccc(OC)cc1)C(C(C)=O)C(=O)OCC (configuration not stated)	>57	-6.2%
COc1ccc(C(=O)Cn2c(N3CCOCC3)nc3ccccc32)cc1OC	>57	.
COc1cc2c(c(OC)c1OC)-c1ccc(OC)c(=O)cc1[C@@H](NC(C)=O)CC2	>57	?
Nc1nonc1C(=O)NCCNC(=O)c1cccs1	>57	-1.3%
CCOC(=O)N1CCC(NC(=O)Cn2nc(-c3ccccc3)ccc2=O)CC1	>57	?
O=C(CCCSc1nc(-c2ccco2)cc(C(F)(F)F)n1)Nc1ccc2c(c1)OCO2	.	?
Cc1ccccc1OCC1CO1 (configuration not stated)	.	?
CN(Cc1ccccc1)c1oc(COc2ccccc2F)nc1C#N	>57	?
CCOc1ccc(Nc2nc3c(c(=O)[nH]2)CCCC3)cc1	>57	-3.1%
COCC(=O)Nc1ccccc1C(=O)Nc1ccc(OC)cc1	>57	2.1%
C=CCNC(=O)C(C#N)c1nc2ccccc2nc1N1CCN(Cc2ccccc2)CC1 (configuration not stated)	>57	?
O=C(CCSc1nc(-c2ccco2)cc(C(F)(F)F)n1)NCC1CCCO1 (configuration not stated)	>57	?
Clc1ccccc1CSc1ncccn1	>57	-13.5%
COc1ccc(CNc2oc(-c3cccc4ccccc34)nc2C#N)cc1	>57	.
CCOC(=O)C1CCN(C(=O)CCCOc2ccccc2)CC1	.	-3.5%
Cc1ccccc1-c1ccc2ncnc(NCCN3CCOCC3)c2c1	>57	4.2%
COc1cc(C2NC(=O)NC(c3ccccc3)=C2C(C)=O)ccc1OCC#N (configuration not stated)	>57	-7.1%
CCCC(=O)Nc1ccccc1-c1nnc(SC)[nH]c1=O	>57	2.8%
Cn1c(C(=O)N2CCN(c3ccc(Cl)cc3)CC2)cc2c(=O)[nH]c3ccccc3c21	>57	3.3%
Cc1cc(NCCCn2ccnc2)n2ncc(-c3ccccc3)c2n1	>57	.
Cc1cc(=O)oc(C)c1C(=O)O	>57	16.1%
O=C(NCCC1=CCCCC1)C1CCN(C(=O)Nc2ccccc2)CC1	>57	-2.6%
COc1cccc(N2CCN(C3CCCC(C)C3)CC2)c1 (configuration not stated)	>57	-23.9%
COCC(=O)N(Cc1cc2cc(OC)ccc2[nH]c1=O)c1ccccc1	>57	0.8%
Cc1ccc(Cl)cc1N1CCN(C(=O)c2ccc(CN3CCOCC3)cc2)CC1	>57	-11.9%
COc1ccc(C(C)NC(=O)C2CCCO2)cc1OC (configuration not stated)	>57	-5.7%
COc1ccccc1NC(=O)N1CCCC1C(=O)NCc1ccccc1 (configuration not stated)	>57	-7.6%
COC(=O)c1c(NC(=O)CSc2nc3c(c(=O)n(C)c(=O)n3C)n2C(C)C)sc(C)c1C	>57	-10.5%
COC(=O)c1ccc(N2CCN(C)CC2)c(NC(=O)c2cc3ccccc3o2)c1	>57	-0.5%
O=C(NCc1ccccc1)C1CCCN(C(=O)Nc2ccccc2)C1 (configuration not stated)	>57	12.0%
CCOc1ccc(OCC)c(NC(=O)CC2Oc3ccccc3NC2=O)c1 (configuration not stated)	>57	-16.0%
COC(=O)NC(c1cccc(F)c1)[C@]1(C(C)=O)CCCC1=O (some centres not stated)	.	-5.6%[8 µM]
OC(COc1c(Br)cc(Br)cc1Br)CN1CCOCC1 (configuration not stated)	>57	-12.4%
CCOC(=O)c1c(C)n(C)c2cc(OCCN(CC)CC)ccc12	>57	28.8%
CCC(C)(C)n1nnnc1C(c1cc2cccc(C)c2[nH]c1=O)N1CCCC1 (configuration not stated)	>57	-2.6%
Nc1cc(C(=O)OCC(=O)N2CCCC2)ccc1Cl	>57	1.0%
COC(=O)COc1nc(C)c2c(c1C#N)CC(C)(C)OC2	>57	-4.7%
CCCCCSc1nc2c(c(=O)[nH]c(=O)n2C)n1CCc1ccccc1	>57	5.9%
COc1ccccc1C(=O)Nc1ccc(S(=O)(=O)Nc2cc(C)on2)cc1	>57	2.4%
C=CCn1c(SCC(=O)Nc2ccccc2OC)nc(O)c(CC)c1=O	.	17.9%
More records
SMILES	Prx2 Sm inh	LT uptake inh
COc1cc(-c2nc(-c3ccccn3)no2)cc(OC)c1OC	>57	-3.4%
COc1cc(NC(=O)c2cccs2)c(OC)cc1NC(=O)CCn1nnc2ccccc21	>57	20.5%
CCCCn1c(NC(=O)CC)c(C#N)c2nc3ccccc3nc21	>57	?
CC(C)[C@@H](CC(=O)N[C@@H]1CCNC[C@H]1C(=O)N[C@H](CC(=O)N[C@@H](CCC(=O)O)CC(=O)O)Cc1c[nH]c2ccccc12)NC(=O)C[C@H](Cc1ccccc1)NC(=O)[C@@H]1CNCC[C@H]1N	>57	-10.9%
Nc1nc(SCC(=O)NCC2CCCO2)n[nH]1 (configuration not stated)	>57	1.0%
c1ccc(N2CCN(C3CCSC3)CC2)cc1 (configuration not stated)	.	-16.5%
O=S(=O)(Cc1ccccc1)N1CCN(C/C=C/c2ccccc2)CC1	>57	-23.7%
CNC[C@H](O)c1ccc(O)c(OC)c1	>57	-4.5%[3.58 µM]
CC(=O)c1cn(CC(=O)NCc2cccnc2)c2ccccc12	>57	-7.8%
Cc1ccc2c(CC(=O)NC3=NCCS3)coc2c1	>57	12.9%

Entries of single compounds from above. Order of screens: Prx2 Sm inh	LT uptake inh
Results for CCCCn1c(NC(=O)CC)c(C#N)c2nc3ccccc3nc21 : >57	?
Results for CNC[C@H](O)c1ccc(O)c(OC)c1 : >57	-4.5%[3.58 µM]
Results for O=S(=O)(Cc1ccccc1)N1CCN(C/C=C/c2ccccc2)CC1 : >57	-23.7%
Results for COc1cc(-c2nc(-c3ccccn3)no2)cc(OC)c1OC : >57	-3.4%
Results for Nc1nc(SCC(=O)NCC2CCCO2)n[nH]1 (configuration not stated) : >57	1.0%

Some of the compounds tested; count on the stated rates, not on these rows.
